Source: PubChem
RecA splice inh = Mtb RecA intein splicing inhibition. 0.75% of 290,000 active. P9WHJ3. cell-free RecA intein splicing, fluorescence. inhibition, %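 (about 9 µM by stock and volumes)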; in the data active = inhibition above about 30%; inconclusive = no clear call, values can overlap the other calls;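 also: 0% = vehicle wells and 100% = reference inhibitor control wells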
Target sequence (P9WHJ3 whole entry, looked up, canonical isoform): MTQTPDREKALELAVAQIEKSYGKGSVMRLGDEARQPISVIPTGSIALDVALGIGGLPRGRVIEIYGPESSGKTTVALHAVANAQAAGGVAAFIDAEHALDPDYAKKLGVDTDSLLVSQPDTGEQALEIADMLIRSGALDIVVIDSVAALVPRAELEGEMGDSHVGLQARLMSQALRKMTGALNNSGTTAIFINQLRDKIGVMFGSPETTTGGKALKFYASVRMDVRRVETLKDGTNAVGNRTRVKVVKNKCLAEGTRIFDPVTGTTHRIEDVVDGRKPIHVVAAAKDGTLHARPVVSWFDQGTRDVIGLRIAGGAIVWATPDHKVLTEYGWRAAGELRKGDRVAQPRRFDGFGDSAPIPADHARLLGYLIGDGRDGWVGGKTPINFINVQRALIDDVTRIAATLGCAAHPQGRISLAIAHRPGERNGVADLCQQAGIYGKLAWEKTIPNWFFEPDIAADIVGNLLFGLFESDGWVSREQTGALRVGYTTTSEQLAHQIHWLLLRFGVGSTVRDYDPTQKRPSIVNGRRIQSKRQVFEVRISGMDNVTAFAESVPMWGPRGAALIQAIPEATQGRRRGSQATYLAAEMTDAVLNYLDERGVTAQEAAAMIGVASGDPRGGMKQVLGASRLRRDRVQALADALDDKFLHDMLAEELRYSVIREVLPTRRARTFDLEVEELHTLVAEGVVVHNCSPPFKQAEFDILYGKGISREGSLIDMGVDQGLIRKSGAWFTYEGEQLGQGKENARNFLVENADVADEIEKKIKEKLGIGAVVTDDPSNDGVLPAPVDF
Mtb growth = M. tuberculosis H37Rv growth inhibitors, H37Rv strain (AID 1626); one-dose inhibition, % at 10 µM; IC50 in µM for titrated hits; 0.95% of 220,000 active; M. tuberculosis H37Rv growth inhibition; higher % means a stronger effect;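 active = confirmed in a dose series; inconclusive = inhibition above 80% but not taken into the dose series; inactive = below 80% or under 30% at every dose of the series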;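 also: bacteria incubated seven days before Alamar blue readout; 0% = bacteria only wells and 100% = bacteria with antibiotic wells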
Mtb betalactam = beta-lactam sensitization of Mtb H37Rv | M. tuberculosis H37Rv growth with meropenem, percent inhibition; hits of this screen are not shown here | inhibition, % at 25 µM | 0.27% of 330,000 active;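 active = about 74% or more and at least 40 points above the plate without the antibiotic, then above 30% in a dose series; inconclusive = first-round hits that could not be retested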;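 also: growth measured after seven days incubation then overnight dye step; 0% = bacteria only wells and 100% = bacteria with antibiotic; twin plates without the antibiotic show which effects depend on it; some results filed as inactive read as strong as hits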
YopH inh = YopH (Yersinia) phosphatase inhibition; 0.16% of 140,000 active; inhibition, %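 (about 10 µM by stock and volumes)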; fluorescence Ex485/Em525;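 active = inhibition of 50% or more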;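 also: controls were vehicle for no effect and minimum signal wells for full effect; inactives centre near -20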
Arbovirus anti = blocks arbovirus infection. inhibition, % at 10 µM. 0.37% of 200,000 active. arbovirus infection cell-based antiviral screen;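 active = inhibition from about 30%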;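 also: bluetongue infection of BSR cells; cell survival read as ATP light after 72 h; 0% = infected wells without compound and 100% = uninfected wells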
Arbovirus anti repeat = second read-out of Arbovirus anti, no call of its own (marks repeat the call); inhibition, %; measured here: 10K subset replicate screen; many hits read low in the repeat;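 first of two repeat runs on a subset; 0% = infected and 100% = uninfected wells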
* marks the source's active call; other numbers are inactive results; u = inconclusive; x = no result given.

SMILES | RecA splice inh | Mtb growth | Mtb betalactam | YopH inh | Arbovirus anti | others
O=C(O)c1cc([N+](=O)[O-])ccc1C(=O)Nc1ccccc1 | -1.7 | -3.2% | -10.9 | -11.4 | 9.1
CN1CCCC(OC(=O)c2cc(F)c(F)c(F)c2F)C1 (stereo not given) | 1.1 | x | 0.2 | x | x
O=C(CN(Cc1ccc(F)cc1)C(=O)CCC(=O)Nc1nccs1)NCc1ccccc1 | -0.6 | x | -1.2 | x | x
Cc1ccccc1OCc1nc2ccccc2n1C | 4.2 | x | -13.8 | x | x
CCCc1cc(C(=O)Nc2ccc(C(C)=O)cc2)no1 | 0.4 | 79.7% | x | -22.1 | -3.8 | Arbovirus anti repeat=-1.3
COc1ccccc1C1CCN(C(=O)c2cnn(-c3ccccc3)c2C)CC1 | 5.2 | 4.3% | 6.7 | x | x
CSc1ncccc1C(=O)NC1CCCc2c1cnn2-c1ccc(C)c(C)c1 (stereo not given) | -0.3 | x | -2.1 | x | x
O=S(=O)(c1ccccc1)c1nc(-c2ccco2)oc1NCCCn1ccnc1 | -7.5 | 5.3% | -10.7 | -37.4 | -1.1
CSc1oc(-c2ccccc2)nc1C(N)=O | -1.9 | -6.0% | 4.3 | -23.3 | 4.5
Cc1ccc(C(=O)Nc2cccc(C(=O)N3CCOCC3)c2)cc1 | 0.4 | -3.7% | -3.3 | 0.7 | 0.4
CCCn1c(N)c(N(CCOC)C(=O)c2cc(S(=O)(=O)N3CCCCCC3)ccc2OC)c(=O)[nH]c1=O | 0.2 | x | -11.0 | x | x
COC(=O)c1sccc1NC(=O)c1ccccc1C(=O)O | 1.8 | x | 0.6 | x | x
CCN(CC)CCCNC(=O)CNC(=O)c1nn(-c2ccc(OC)cc2)c(=O)c2ccccc12 | 0.7 | -11.9% | -8.1 | x | -1.7
O=C(Nc1ccccc1)c1ccc(S(=O)(=O)NCC2CCCO2)cc1 (stereo not given) | 0.1 | -11.6% | 2.7 | -22.8 | 8.9
COC(=O)c1cc2occc2n1CC(=O)Nc1ccc(C)cc1C | -1.2 | 4.0% | 2.2 | -26.8 | -2.4
O=C(c1cccc(S(=O)(=O)N2CCCCC2)c1)N1CCN(c2ccccc2)CC1 | 0.3 | x | -7.6 | x | x
COc1ccc(CCNC(=O)c2ccc(CSc3ccccc3)o2)cc1 | 10.3 | -0.9% | 13.6 | x | 0.4
COc1ccc(N2CCN(CC(O)COc3ccc(C)cc3C)CC2)cc1 (stereo not given) | -0.2 | x | 5.1 | x | x
CC(=O)N1C(Nc2ccc(Cl)cc2)CCN1c1ccccc1 (stereo not given) | 8.2 | 38.5% | 88.2 | -26.5 | -7.2
CCC(C)(C)C1CCc2nc3ccccc3c(C(=O)OC(C)C(=O)Nc3c(C)n(C)n(-c4ccccc4)c3=O)c2C1 (stereo not given) | 1.5 | 17.3% | 60.9 | -38.5 | -23.4
CCc1ccc(N2CC(C(=O)Nc3cccnc3)CC2=O)cc1 (stereo not given) | -1.2 | x | -12.8 | -21.2 | 1.6
COc1ccc(NC(=O)CSc2ncnc3c2cnn3CCc2ccccc2)cc1 | -1.6 | 1.4% | -1.3 | 1.3 | 4.2
O=S(=O)(NCCc1cn2ccccc2n1)c1ccc2c(c1)OCCO2 | 0.5 | 3.4% | 6.1 | -43.1 | 7.5 | Arbovirus anti repeat=4.2
Cc1ccc(/C=C2\SC(=S)N(c3cccnc3)C2=O)o1 | 3.5 | 27.7% | -5.0 | x | x
COc1ccc(S(=O)(=O)N/N=c2\oc3c(OC)cccc3cc2S(=O)(=O)c2ccc(C)cc2)cc1OC | 3.4 | -6.5% | -4.8 | x | 6.1
COC(=O)/C=C1\SC(=NC(=O)c2ccc(OC)cc2)NC1=O | 1.2 | x | -2.5 | x | x
O=C(Cc1ccc(Br)cc1)N1CCN(c2ccccc2)CC1 | 1.3 | 5.4% | -0.5 | -17.3 | 11.9
CC(CC(=O)N1CCc2ccccc21)c1ccccc1 (stereo not given) | 1.2 | -5.7% | -6.5 | -10.6 | -6.1
O=C1S/C(=C/c2ccc(N3CCOCC3)o2)C(=O)N1Cc1c(F)cccc1Cl | 3.1 | -11.5% | 2.5 | -3.1 | -2.5
O=C(Nc1cc(S(=O)(=O)Nc2ccccc2Cl)ccc1O)c1sc2cc(Cl)ccc2c1Cl | -3.6 | -2.6% | 7.4 | x | 1.2
CCC(=O)Nc1cccc2cccnc12 | 2.3 | 16.2% | 3.8 | x | 2.9
CCOc1ccccc1C1C2CCCCC2(O)CCN1C(=O)c1cccs1 (stereo not given) | 7.4 | 0.9% | -0.8 | -5.0 | 3.7
CC(C)C12CN3CC(C(C)C)(CN(C1)C3c1ccc([N+](=O)[O-])o1)C2=O (stereo not given) | -2.3 | 2.1% | 41.1 | x | x
CC(=O)NCCn1c(SCC(=O)NCCC2=CCCCC2)nc2ccccc2c1=O | -1.6 | -8.6% | 1.5 | -9.6 | -4.9
COCCn1c(C(=O)N2CCCC2)cc2c1C[C@H]1CN(C(=O)c3ccccc3)[C@@](Cc3ccc(F)cc3)(C(=O)OC)[C@@H]21 | x | -2.4% | -5.5 | -11.2 | -7.7
Cc1sc(NC(=O)c2ccccc2)c(C(=O)NC(C)C)c1C | -4.6 | 6.8% | 8.8 | -18.4 | 3.1
O=C(Nc1cccc(C(F)(F)F)c1)N1CCC(c2nc(-c3ccc(F)cc3)no2)CC1 | 8.4 | u | 92.5 | -25.4 | -18.9
CCOc1ccc(C2C(C(=O)c3ccco3)=C(O)C(=O)N2CCCn2ccnc2)cc1OCC (stereo not given) | -2.4 | x | 1.8 | x | x
COc1ccc(OC(=O)c2ccc3nsnc3c2)cc1 | -7.3 | 59.1% | 79.5 | -4.2 | 4.8
Cc1nc2sc3c(=O)[nH]nnc3c2c(C)c1Br | -7.4 | x | -1.9 | x | x
Cc1c(C(=O)N2CCCC2)c(S(=O)(=O)N2CCCCC2)c(C)n1C | -0.8 | x | 5.5 | x | x
Nc1c(Cl)cc(-c2csc(N3CCCC3c3nc4cc(Cl)c(N5CCCCC5)cc4n3CCCO)n2)cc1Cl (stereo not given) | 0.0 | -4.3% | x | x | x
CC(C)(C)OC(=O)N1CCC(c2c(C(=O)NCC3CCN(C4CCCC4)C3)cnn2-c2ccccc2Cl)CC1 (stereo not given) | 1.4 | x | -5.9 | x | x
O=C(NCc1ccco1)C(c1ccccc1)N(CC1CCCO1)C(=O)Cn1nnc2ccccc21 (stereo not given) | -0.3 | -11.7% | -18.1 | -21.5 | -0.1
CCn1c(C)csc1=NC(=O)c1ccccc1 | 1.7 | 68.9% | 12.4 | -11.5 | 0.5
COc1cccc(NS(=O)(=O)c2ccc3[nH]cc(C(=O)N(C)Cc4ccco4)c(=O)c3c2)c1 | 0.6 | 1.0% | -5.8 | -9.4 | 16.0
NNC(=O)CSCc1nc(-c2ccc(Cl)cc2)cs1 | 2.1 | -11.1% | -6.9 | x | x
CCOC(=O)c1ccc(NC(=O)COc2ccc(S(=O)(=O)NC(C)(C)C)cc2)cc1 | -0.5 | -1.7% | 11.7 | -18.5 | 9.0
O=C(Cc1ccccc1)N1CCN(Cc2ccccn2)CC1 | -1.9 | x | -3.7 | -32.3 | -7.6
COc1ccc(CCNc2nc(C)c(C(C)=O)s2)cc1OC | 0.0 | x | 0.5 | x | x
Cc1ccc(S(=O)(=O)N2CCCCC2)cc1NC(=O)COC(=O)c1ccc2c(c1)OCO2 | 1.3 | 0.9% | 0.2 | -11.2 | 2.2
CCOC(=O)c1ccccc1NC(=O)COC(=O)c1cc([N+](=O)[O-])ccc1N1CCOCC1 | 4.2 | x | 91.3 | x | x
COc1cc(OC)cc(C(=O)Nc2nnc(SCC(=O)NCC3CCCO3)s2)c1 (stereo not given) | -3.5 | x | u | x | x
COc1ccc(/C=C(\NC(=O)c2ccc(OC)cc2)C(=O)Nc2ccc(C(=O)O)cc2)cc1 | -1.8 | x | 11.3 | x | x
CN(NC1CC(=O)N(c2ccccc2)C1=O)c1ccccc1 (stereo not given) | x | 5.8% | 3.5 | -11.3 | -19.3
CCn1c(/C=C/Nc2ccccc2)[n+](CC)c2cc(Cl)c(Cl)cc21 | -5.8 | 0.7% | -3.2 | 4.4 | -27.0
C/C=C/c1ccc(OCCCCOc2ccccc2C(C)=O)c(OC)c1 | 2.1 | 6.3% | 5.7 | -24.6 | 35.7*
CN1CCN(C(=O)C2=C[C@@H](c3coc4ccccc4c3=O)C[C@@H](OCc3ccc(CO)cc3)O2)CC1 | -0.5 | -10.9% | -3.2 | x | -1.2
Cn1ncc2c(NNC(=O)c3ccc(O)cc3)ncnc21 | 0.0 | 4.1% | -2.9 | x | 3.0
COc1cc(-c2nc(CN3CCN(c4ncccn4)CC3)c(C)o2)ccc1F | -1.5 | -2.9% | 3.2 | x | 3.2

The closing two entries of the section above are carried over, then new ones follow:
SMILES | RecA splice inh | Mtb growth | Mtb betalactam | YopH inh | Arbovirus anti | others
Cn1ncc2c(NNC(=O)c3ccc(O)cc3)ncnc21 | 0.0 | 4.1% | -2.9 | x | 3.0
COc1cc(-c2nc(CN3CCN(c4ncccn4)CC3)c(C)o2)ccc1F | -1.5 | -2.9% | 3.2 | x | 3.2
COc1ccc(NC(=O)CSc2nnc(-c3cccnc3)n2C)cc1 | 0.1 | -1.4% | -1.4 | x | x
COc1ccc(Br)c2oc(S)cc(=O)c12 | -1.6 | -4.8% | 4.3 | -40.9 | 8.4
Fc1ccc(Nc2ncnc3sc4c(c23)CCC4)cc1F | -1.6 | 6.8% | 84.6 | -17.4 | 15.6
Cc1cc(C)cc(OCC(=O)NC(C)c2ccccc2)c1 (stereo not given) | 1.1 | x | 0.8 | x | x
COc1cc2c(cc1OC)CN(C(=O)Cc1ccccc1)CC2 | 3.0 | x | u | x | x
O=C(c1ccc(-c2ccccc2)c(F)c1)C1CCCN(CCO)C1 (stereo not given) | 2.4 | 6.1% | -0.4 | x | -34.3
Nc1nnnn1/N=C/c1cc(Cl)cc(Cl)c1OCc1ccc(Cl)cc1Cl | 1.3 | 5.6% | -3.6 | 20.0 | -14.8
Cc1c(C(=O)N(Cc2ccc(Cl)cc2)C2CCS(=O)(=O)C2)oc2ccccc12 (stereo not given) | 6.8 | x | 13.1 | x | x
COC(=O)c1ccc(Cn2nc(C)cc2C)cc1 | 3.4 | -2.1% | -9.8 | -18.0 | 0.8
CC(C)(C)c1ccc(C(=O)NCCCNC(=O)c2ccco2)cc1 | -1.3 | x | 1.0 | x | x
COc1cccc(NC(=O)Nc2cc(Cl)ccc2C)c1 | x | 3.2% | 1.0 | x | -2.5
COc1ccc(S(=O)(=O)N/N=C(/C)c2ccc(Cl)cc2)cc1 | 4.0 | 5.0% | 1.9 | -12.6 | 8.9
O=C(Cc1ccc(Br)cc1)N1CCCC1 | -0.2 | x | 2.3 | x | x
Cc1ccc(C(=O)N(Nc2nc3ccccc3s2)C(=O)c2ccc(C)cc2)cc1 | -0.4 | 13.5% | 12.0 | -2.5 | -10.3
CCCCNCCOCCOc1ccc(Cl)cc1Br | 0.4 | 5.0% | -8.1 | 2.7 | -37.1

Entries shown so far that contain a Cl atom, in the order listed:
SMILES | RecA splice inh | Mtb growth | Mtb betalactam | YopH inh | Arbovirus anti | others
CC(=O)N1C(Nc2ccc(Cl)cc2)CCN1c1ccccc1 (stereo not given) | 8.2 | 38.5% | 88.2 | -26.5 | -7.2
O=C1S/C(=C/c2ccc(N3CCOCC3)o2)C(=O)N1Cc1c(F)cccc1Cl | 3.1 | -11.5% | 2.5 | -3.1 | -2.5
O=C(Nc1cc(S(=O)(=O)Nc2ccccc2Cl)ccc1O)c1sc2cc(Cl)ccc2c1Cl | -3.6 | -2.6% | 7.4 | x | 1.2
Nc1c(Cl)cc(-c2csc(N3CCCC3c3nc4cc(Cl)c(N5CCCCC5)cc4n3CCCO)n2)cc1Cl (stereo not given) | 0.0 | -4.3% | x | x | x
CC(C)(C)OC(=O)N1CCC(c2c(C(=O)NCC3CCN(C4CCCC4)C3)cnn2-c2ccccc2Cl)CC1 (stereo not given) | 1.4 | x | -5.9 | x | x
NNC(=O)CSCc1nc(-c2ccc(Cl)cc2)cs1 | 2.1 | -11.1% | -6.9 | x | x
CCn1c(/C=C/Nc2ccccc2)[n+](CC)c2cc(Cl)c(Cl)cc21 | -5.8 | 0.7% | -3.2 | 4.4 | -27.0
Nc1nnnn1/N=C/c1cc(Cl)cc(Cl)c1OCc1ccc(Cl)cc1Cl | 1.3 | 5.6% | -3.6 | 20.0 | -14.8
Cc1c(C(=O)N(Cc2ccc(Cl)cc2)C2CCS(=O)(=O)C2)oc2ccccc12 (stereo not given) | 6.8 | x | 13.1 | x | x
COc1cccc(NC(=O)Nc2cc(Cl)ccc2C)c1 | x | 3.2% | 1.0 | x | -2.5
COc1ccc(S(=O)(=O)N/N=C(/C)c2ccc(Cl)cc2)cc1 | 4.0 | 5.0% | 1.9 | -12.6 | 8.9
CCCCNCCOCCOc1ccc(Cl)cc1Br | 0.4 | 5.0% | -8.1 | 2.7 | -37.1

The list is partial (hit frequency here may not be typical).
